NPYLR7 ag – agonists of mosquito NPYLR7 receptor, primary screen, cell-based, Aedes aegypti, calcium fluorescence, mosquito biting behavior; Aedes aegypti neuropeptide Y-like receptor 7 (NPYLR7); HEK293T NPYLR7/Galpha15, GCaMP6s calcium fluorescence; activation, % at 10 µM; hit rate 0.15% among 270,000; in the data active = activation above about 40%;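 also: 0% = vehicle and 100% = reference agonist at the receptor; some compounds past the cut are filed as inactive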
NPYLR7 ag max-min – recorded beside NPYLR7 ag, whose call it bears; activation, %; measured here: Max-Min RFU normalised activation; some inactives read as strong as hits;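 span of the calcium signal over five minutes; 0% = vehicle and 100% = native peptide agonist; compound fluorescence can raise it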
* marks the source's active call; other numbers are inactive results; & = joins results of further samples.

SMILES	NPYLR7 ag	NPYLR7 ag max-min
O=C(NCCCc1nc2ccccc2[nH]1)N1CCc2sccc2C1	-3	-4
C=CCSc1nnc2c(n1)OC(c1cccc(C)n1)Nc1ccccc1-2 (stereo not drawn)	2	-2
Cc1cccc(Oc2cc(N3CCN(C(=O)c4ccco4)C(C)C3)ncn2)c1 (stereo not drawn)	2	-9
CNc1nc(NCCCN2CCCC2=O)c2sccc2n1	1	1
Cc1ccc(S(=O)(=O)N(C)C)cc1NC(=O)C(C)Sc1nnc(C)n1C (stereo not drawn)	10	8
O=C(NCc1nnnn1C1CCCCC1)OCc1ccccc1	3	1
CC(C)N(CC(=O)N(CCc1c[nH]c2ccccc12)Cc1ccc(Cl)c(Cl)c1)Cc1ccc([N+](=O)[O-])cc1	14	22
N#CC(=Cc1ccsc1)c1nc2ccccc2s1	5	3
CCOC(=O)c1cc(C)cc(Br)c1NC(=O)c1c(F)cccc1F	6	3
C=CCn1nnc(NC(=O)COc2c(C)cc(Cl)cc2Cl)n1	1	-1
O=c1c2ccccc2c(C=Nc2ncccn2)c(O)n1-c1ccccn1	7	15
NC(=O)c1nccnc1C(=O)N1CC2CCCC2C1 (stereo not drawn)	1	-4
COc1ccccc1CCNC(=O)CSc1ccc(NC(=O)c2ccccc2)nn1	1	2
CN(Cc1cn[nH]c1-c1ccccc1)Cc1cccc2c1OCO2	2	4
O=C(Nc1ccc(Oc2ccccc2)nc1)C1CCN(C(=O)c2ccco2)CC1	1&1	0&-2
Cn1cc(NC(=O)CN2CCCC(C(=O)c3ccc4ccccc4c3)C2)cn1 (stereo not drawn)	12	9
CCOC(=O)N1CCN(C(c2ccc(C)cc2)c2c(O)cc(C)n(CC)c2=O)CC1 (stereo not drawn)	9	5
Cc1ccc(C(=O)n2nc(N)nc2C)c(C)c1	-7	-7
c1ccc(-c2ccc(SCCN3CCCCC3)nn2)cc1	9	1
O=C(NC(c1ccc(Cl)cc1)c1ccsc1)C1CCN(Cc2ccc(Cl)cc2)CC1 (stereo not drawn)	-12	-9
CNC(=O)[C@@H]1[C@@H](OC(N)=O)C(=O)N(C)C12CCN(C(=O)c1ccccc1OC(F)(F)F)CC2	24	20
CC(C)(C)c1cc(NCCCn2ccnc2)n2ncc(-c3ccccc3)c2n1	-2	0
COc1ccc(CN2CCC(C(=O)NC(c3ccc(OC)cc3)c3ccccn3)CC2)cc1 (stereo not drawn)	17	9
Cc1ccsc1CN(Cc1ccccc1)C(=O)CN(CC1CCCO1)C(=O)/C=C/c1ccc([N+](=O)[O-])cc1 (stereo not drawn)	-2	-2
CN(CCC#N)c1ccc(C=NNC(N)=S)cc1	-2	-3

Shown with values under each structure: 2 of the compounds above
Results follow in this order: NPYLR7 ag, NPYLR7 ag max-min
- CC(C)(C)c1cc(NCCCn2ccnc2)n2ncc(-c3ccccc3)c2n1
 : -2, 0
- CNC(=O)[C@@H]1[C@@H](OC(N)=O)C(=O)N(C)C12CCN(C(=O)c1ccccc1OC(F)(F)F)CC2
 : 24, 20

(listing goes on)
SMILES	NPYLR7 ag	NPYLR7 ag max-min
Cc1ccc(NC(=O)N2CCSC2c2ccc(C(F)(F)F)cc2)cc1Cl (stereo not drawn)	17	24
CC(C)=CCN1CCN(Cc2ccncc2)CC1CCO (stereo not drawn)	4	0
Cc1ccccc1-n1ncc(C(C)NC(=O)c2c(C)nc3sccn23)c1C (stereo not drawn)	4&10	-1&3
COc1ccc(C(=O)N2CCSC23C(=O)N(Cc2cccc(C)c2)c2ccc(F)cc23)cc1 (stereo not drawn)	-6	-2
Cc1cc(N2C(=O)C3C4C=CC(C4)C3C2=O)n[nH]1 (stereo not drawn)	-10	-14
CN(CC1COc2ccccc2O1)C(=O)C1CCCN(C(=O)c2ccc(F)cc2)C1 (stereo not drawn)	-5	-7
N#CC1(C(=O)NCCOc2ncc(Cl)cc2Cl)CCCC1	1	0
O=C(Nc1ccsc1C(=O)O)c1ccc(Br)cc1	-2	-2
CN(CC(=O)c1ccc(O)cc1)C(=O)c1nc2ccccc2[nH]1	9	4
CCCCOc1ccc(NC(=O)Nc2ccc3c(c2)CCC(=O)N3CC)cc1	-5	-7
Cc1nc2ccccn2c(=O)c1NC(=O)Cc1ccccc1	4	3
Cc1ccc(NC(=S)NC(=O)c2ccc(F)cc2)nc1	9	12
COc1ccccc1C(=O)Oc1ccc(/C=N\n2c(=O)c(C(C)(C)C)nn3cnnc23)cc1	1	-4
COc1ccc(-c2nc3cc(C)ccn3c2NC(=O)c2cccc(OC)c2)cc1	-9	-3
CNC(=O)Cn1nc(C(=O)N2CCOC(C(F)(F)F)C2)cc1C (stereo not drawn)	-2	-6
CCOC(=O)c1nn(-c2ccccc2)c(=O)cc1OS(=O)(=O)c1ccc(F)cc1F	5	4
O=C1NC(Cc2ccc(F)cc2)(C2CCNCC2)C(=O)N1Cc1cncs1 (stereo not drawn)	8	0
O=C1CC2(CCN(C(=O)CC(c3ccccc3)c3ccccc3)CC2)CN1	5	-1
O=C(Cc1ccccc1)N1CCCC(OCc2ccc(Br)cc2)C1 (stereo not drawn)	-8	-5
O=C(Nc1ccc(-c2ccn[nH]2)cc1)C1CCCN(Cc2cc3c(cc2Cl)OCO3)C1 (stereo not drawn)	0	2
O=C(Cn1cnc(-c2ccccc2)cc1=O)N1CCc2ccccc21	9	4
O=C(NCc1nc(C(F)(F)F)cs1)c1cc(F)cc2[nH]cnc12	10	7
CN(C1=CC(=O)CC(C)(C)C1)c1ccccc1	-4	12
O=C(c1ccccc1NCCCC1CCCC1)N1CCCC(O)C1 (stereo not drawn)	-1	77
Cc1c(C(=O)NC(C)CCc2ccccc2)cc(-c2ccc(Cl)cc2)n1-c1ccc(F)cc1 (stereo not drawn)	2	14

A stretch of the results above, for reference:
SMILES	NPYLR7 ag	NPYLR7 ag max-min
O=C(NCCCc1nc2ccccc2[nH]1)N1CCc2sccc2C1	-3	-4
C=CCSc1nnc2c(n1)OC(c1cccc(C)n1)Nc1ccccc1-2 (stereo not drawn)	2	-2
Cc1cccc(Oc2cc(N3CCN(C(=O)c4ccco4)C(C)C3)ncn2)c1 (stereo not drawn)	2	-9
CNc1nc(NCCCN2CCCC2=O)c2sccc2n1	1	1
Cc1ccc(S(=O)(=O)N(C)C)cc1NC(=O)C(C)Sc1nnc(C)n1C (stereo not drawn)	10	8

Additional results
SMILES	NPYLR7 ag	NPYLR7 ag max-min
Cc1ccn2c(=O)nc(SCC(=O)N3CCc4ccccc43)nc2c1	3	2
CCOC(=O)CCCCCC(=O)Nc1cc(-c2onc3c2CCCC3)ccc1C	21	26
COc1ccc2[nH]cc(CCNC(=O)c3ccccc3Cl)c2c1	15	7
COc1ccc(C2=C(C)N([O-])C(C)(C)[N+]2=O)cc1	5	4
O=C(NCCC1=CCCCC1)Nc1ccn(CCN2CCOCC2)n1	18	13
CC(C)(C)c1ccc2oc(-c3ccc(NC(=O)c4cccc(I)c4)cc3)nc2c1	-8	-11
Cc1nc2ccccn2c1C(=O)N(Cc1cccn1C)C1CC1	7	6
C=CCNCC(=O)N(Cc1ccc2c(c1)OCO2)Cc1sccc1C	3	-6
Cc1cc2[nH]c(=O)cc(-c3ccccc3)n2n1	3	0
O=c1[nH]c2ccccc2c(=O)n1CC1CCN(c2ccccc2)C1 (stereo not drawn)	1	-1
CC(C)(C)NC(=O)[C@@H]1CCCC[C@@H]1C(=O)NCCN1CCOC1=O	19	9
CC(=O)COC(=O)c1ccccc1Sc1nc(Cl)cs1	6	3
CCC(NC(=O)Nc1ccc(-c2csnn2)cc1)c1nccs1 (stereo not drawn)	7	1
CC(=O)N(Cc1cccc(F)c1)Cc1cc(N)ccc1N(C)C	-2	5
Cc1ccccc1Cn1c(=O)c2c(nc3oc(C(C)(C)C)cn32)n(C)c1=O	-5	-9
CC(=O)N1c2ccccc2N=C2CC(C)(C)CC(=O)C2C1c1cccc([N+](=O)[O-])c1 (stereo not drawn)	1	1
COc1ccc(C(N)=O)c(OS(=O)(=O)c2cccc(OC(F)(F)F)c2)c1	11	6
CN(C)c1ncccc1N(C)S(=O)(=O)c1ccc(C#N)cc1	6	3
CCCCc1nc(N2CCN(C(=O)NCc3ccccc3)CC2)c2c(-c3ccc4ccccc4c3)noc2n1	-7	-8
O=C(Cc1cn2ccsc2n1)NN=C1CCCCCCCCCCC1	5	2
Cc1c(C(=O)O)sc2nc(CN3CCCC3)[nH]c(=O)c12	4	6
O=C(c1cc[nH]c(=O)c1)N1CCc2ccc(F)cc21	2	0
COC(=O)c1cccc(S(=O)(=O)NC2CCC(C(F)(F)F)CC2)c1 (stereo not drawn)	12	11
N=C1/C(=C/c2ccccc2)C(=O)N=C2SC(c3ccccc3)=NN12	0	0
CCOC(=O)c1nn(CC(C)C)c2c1CN(C(=O)c1csc(-c3cccs3)n1)CC2	7	-3

Ordered by molecular weight (rising): some entries from above.
SMILES	NPYLR7 ag	NPYLR7 ag max-min
Cc1cc2[nH]c(=O)cc(-c3ccccc3)n2n1	3	0
O=C(c1cc[nH]c(=O)c1)N1CCc2ccc(F)cc21	2	0
O=c1[nH]c2ccccc2c(=O)n1CC1CCN(c2ccccc2)C1 (stereo not drawn)	1	-1
CC(=O)COC(=O)c1ccccc1Sc1nc(Cl)cs1	6	3
N=C1/C(=C/c2ccccc2)C(=O)N=C2SC(c3ccccc3)=NN12	0	0
CC(C)(C)NC(=O)[C@@H]1CCCC[C@@H]1C(=O)NCCN1CCOC1=O	19	9
CCOC(=O)CCCCCC(=O)Nc1cc(-c2onc3c2CCCC3)ccc1C	21	26

Next section.
SMILES	NPYLR7 ag	NPYLR7 ag max-min
COCCN(CC(=O)N(Cc1ccccc1)Cc1ccco1)C(=O)Nc1cccc(C#N)c1	-3	1
CCCc1nnc(SCc2ccc(OCCC(C)C)cc2)n1N	-10	-16
CC(NS(=O)(=O)Cc1ccccc1)c1ccccc1F (stereo not drawn)	-1	-1
CN(C)CCN(Cc1c(-c2ccccc2)noc1N(C)C1CCCCC1)C(=O)c1cccs1	7	10
O=C(NCC(CCO)c1ccccc1)c1cc(F)c(F)c(F)c1 (stereo not drawn)	1	1
CCOC(=O)c1ccc(NC(=O)Cn2cccc(-c3nc(-c4ccc(C)cc4)no3)c2=O)cc1	2	-3
CC(C)c1ccccc1OC1CC2CCC(C1)N2C(=O)c1ccc(CSc2nc(-c3ccccc3)cs2)cc1 (stereo not drawn)	6	0
CC#CC(=O)N1CCCC(CCC(=O)NCc2ccc(F)c(F)c2)C1 (stereo not drawn)	24	9
Cc1cc(-n2c(C)cc(C(=O)Cn3cnc4sc(C)c(C)c4c3=O)c2C)no1	4	20
C#CCOCC(O)CN(CCC)Cc1c(-c2ccccc2)noc1N1CCSCC1 (stereo not drawn)	4	5
CC(C)(NC(=O)C1=NOC(c2ccccc2)C1)c1ccc(F)c(F)c1 (stereo not drawn)	26&3	26&0
COCCN(Cc1ccc(OS(=O)(=O)c2ccc(OC)cc2)cc1)C(=O)NC(C)(C)C	3	3
Cc1cc(NC(=O)CSc2nc3ccccc3c(=O)n2C2CCCC(C)C2C)on1 (stereo not drawn)	0	-1
CC(=O)Nc1ccc(S(=O)(=O)Oc2ccccc2CN(Cc2ccco2)C(=O)c2cccc(F)c2)cc1	1	7

Among those listed so far, 2 contain a COOH group:
SMILES	NPYLR7 ag	NPYLR7 ag max-min
O=C(Nc1ccsc1C(=O)O)c1ccc(Br)cc1	-2	-2
Cc1c(C(=O)O)sc2nc(CN3CCCC3)[nH]c(=O)c12	4	6

An excerpt; count on the stated rates, not on these rows.
